Source: PubChem BioAssay
Bead autofluor – compound fluorescence in toxin protease inhibitor counterscreen; compound autofluorescence counterscreen, microsphere flow cytometry; stronger effect = higher value; fluorescence intensity (concentration not given with the values); hit rate 3.1% among 360,000; AID 624483;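 active = at least 3 SD above the mean of all compounds, about 16000 in these data; inconclusive = too few beads counted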;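 also: 100 nL of 1 mM stock went into each well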
Sa RN4220 lethal – S. aureus RN4220 growth inhibition | OD600, 16 h | inhibition, % (no concentration beside the values) | hit rate 0.33% among 330,000 | AID 1259311;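 active = z-score of -3 or lower and OD600 up to 0.18 on both plates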;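 also: plate controls were untreated cells for no effect and reference antibiotic for full effect; stock transfer was 100 nL into about 80 µL; one replicate is shown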
Sa ugtP lethal – growth inhibition of S. aureus ugtP deletion strain; S. aureus RN4220 ugtP deletion, OD600 growth, 16 h; some inactives read as strong as hits; growth inhibition, % (test concentration not listed); hit rate 0.54% among 330,000;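 active = z-score under -3 and OD600 up to 0.15 on both plates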;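 also: plate controls were untreated wells for no effect and antibiotic for full effect; wells of about 80 µL received 100 nL stock; the first replicate is given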
BJeLR lethal – kills HRASV12-expressing BJeLR cells | hit rate 0.17% among 300,000 | BJeLR (HRASV12) viability, CellTiter-Glo ATP luminescence, 48 h; reference of the scale not given here | inhibition, % (concentration not given with the values);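 active = replicate mean above 50%; inconclusive = above 50% but judged a plate artefact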;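 also: 50 nL library stock added to about 25 µL; numbers are from one replicate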
Mtb hypoxia rep – inhibitors of hypoxia-regulated fluorescent reporter in Mycobacterium tuberculosis; fluorescence inhibition, % (concentration not given with the values); AID 1159583; hit rate 0.1% among 300,000; M. tuberculosis hypoxia-regulated fluorescent reporter, fluorescence;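 active = 35 to 45% if threefold the growth effect, above 45% if 1.5-fold the growth effect; inactive = the rest, general growth blockers included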;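 also: wells of about 50 µL received 100 nL stock; 0% = vehicle wells and 100% = reference inhibitor wells; whole bacteria with a GFP reporter of the hypoxia response; strong numbers were not always called active; many hits fall short of the cut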
PrP UTR inh – suppresses PrP 5' UTR mRNA reporter expression; cell-based PrP 5' UTR mRNA reporter, plate reader; inhibition, % (test concentration not listed); hit rate 0.35% among 340,000; AID 488862;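 active = every replicate at 50% or more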;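 also: 0 = median of the neutral control wells; tested in H4 reporter cells; numbers are from one replicate; inactives centre near -14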
Mtb hypoxia rep growth – further read-out of Mtb hypoxia rep, marked with its call; growth inhibition, %; measured here: M. tuberculosis growth (absorbance);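 0% = vehicle and 100% = reference antibiotic; read after six days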
* hit, by the source's call; ? = inconclusive; . = not tested or not shown; & = joins results of further samples.

SMILES	Bead autofluor	Sa RN4220 lethal	Sa ugtP lethal	BJeLR lethal	Mtb hypoxia rep	Mtb hypoxia rep growth	PrP UTR inh
O=C(COC(=O)CNS(=O)(=O)c1ccc(Br)cc1Cl)NC1CCCC1	4365	0.6	-1	-1	4	0	-19
CCCCOc1ccc(/C=C/C(=O)Nc2ccc([N+](=O)[O-])cc2C)cc1	2485	-9.0	15	-4	11	6	-3
CSCCC(NC(=O)c1ccc(Cl)cc1Cl)C(=O)N(C)Cc1nc2ccccc2c(=O)[nH]1 (configuration not stated)	4618	-6.4	-3	.	-5	-19	-4
CCOc1ccc(CN2CCN(C3CCC3)CC2CCO)cc1 (configuration not stated)	4291	1.0	7	-4	7	1	-18
Cc1cccc(-c2ncc(CN3CCN(CC(C)C)C(CCO)C3)cn2)c1 (configuration not stated)	4494	11	2	17	11	-2	-4
CC(Oc1ccccc1)C(=O)Nc1ccc(S(=O)(=O)NCC2CCCO2)cc1 (configuration not stated)	10607	4.0	10	3	3	8	-23
COc1ccccc1N1C(=O)C(Cl)=C(Nc2ccccc2O)C1=O	2816	.	.	-5	.	.	-30
O=C(NCCC1=CCCCC1)C1CCN(S(=O)(=O)c2cccc3cccnc23)CC1	5632	1.6	2	3	.	.	-10
O=C(NCc1ccccc1)c1cccc(S(=O)(=O)NCc2ccccc2)c1	1986	0.7	-2	-7	6	-2	-17
COc1cc(S(=O)(=O)N2CCN(C)CC2)ccc1Cl	9985	2.1	10	-1	1	4	-18
CC(CCc1ccccc1)NC(=O)c1ccccc1F (configuration not stated)	3816	0.3	0	-3	.	.	-9
CC1CN(C(C)CO)C(=O)c2cccc(NS(=O)(=O)c3ccc(Cl)cc3)c2OC1CN(C)CC1CCCCC1 (configuration not stated)	.	2.2	4	.	19	11	.
CCSc1nnc(NC(=O)c2ccc3c(c2)OCO3)s1	7961	8.4	-6	-3	3	2	.
CCCOc1ccc(Oc2cc(C)nc(SC)n2)nn1	4636	6.6	6	-12	11	13	-16
O=C(CCN1C(=O)/C(=C/c2ccccc2)SC1=S)NNC(=O)c1cccnc1	2471	.	.	-7	.	.	-21
Cc1ccc(S(=O)(=O)N2CCOCC2)cc1C(=O)NC1CCCC(C)C1C (configuration not stated)	4579	-1.4	10	-5	3	1	-8
COc1ccc(/C=C/C(=O)N2CCN(C)CC2)cc1S(=O)(=O)N1CCCCC1	4418	6.9	11	.	7	1	-24
COc1ccc([C@@H]2[C@@H]3C(=O)N(C(C)(C)C)C(=O)[C@@H]3[C@]3(CC(C)C)C(=O)N(c4cccc(Br)c4)C(=O)N23)cc1	2901	.	.	1	.	.	-18
CC(=O)N[C@@H](Cc1c[nH]c2ccccc12)C(=O)OCC(=O)NCc1ccc2c(c1)OCO2	4418	7.3	3	-12	5	20	-10
CC(=NNc1ccccn1)c1ccc(C#N)cc1	.	-9.9	7	.	16	2	.
CCC1Nc2ncnc(N3CCN(c4ccccc4)CC3)c2N(Cc2ccc(Br)cc2)C1=O (configuration not stated)	4374	.	.	-3	.	.	-13
CCCN(CC(=O)Nc1ccccc1OC)C(=O)CCCN1C(=O)c2ccccc2C1=O	.	1.8	-1	1	-2	-6	1
CCOC(=O)C1=C(C)Nc2[nH]c(=O)[nH]c(=O)c2C1c1cccs1 (configuration not stated)	5284	2.7	-16	-8	-12	4	2
COc1ccccc1NC(=O)c1cc(C)oc1C	4084	11	6	0	15	2	-19
O=C(O)c1csc(Br)c1Br	3039	-0.2	-10	4	5	4	-14
CCN(CC)C(=O)CSc1nc2cc3c(cc2c(=O)n1CCCCCC(=O)NCc1ccc(OC)cc1)OCO3	3333	-0.3	-2	9	4	4	1
C=CCn1c(O)c(N=NC(=S)Nc2ccccc2F)c2ccccc21	4227	17	-3	6	2	11	21
C/C(=N\NS(=O)(=O)c1ccc(Br)cc1)c1cccs1	3448	.	.	5	.	.	-25
O=C(Nc1cc(C(F)(F)F)ccc1Cl)C(Sc1cccc[n+]1[O-])c1ccccc1 (configuration not stated)	2160	3.2	7	-5	9	5	-14
CN(C)S(=O)(=O)c1ccc(N2CCCC2)c(C(=O)NNC(=O)COc2ccc(Cl)cc2)c1	5608	7.1	12	-8	1	1	-12
CCOc1ccccc1C=C1SC(=S)NC1=O	4193	95*	97*	.	8	7	-28
Cc1ccc(NC(=O)COC(=O)Cn2c(C)csc2=O)cc1C	17233*	1.2	3	-3	-1	3	-5
S=C(NCc1ccco1)N1CCOCC1	4857	5.5	-8	7	-9	-5	0
O=C1NC(=O)N(c2ccc3c(c2)OCO3)C(=O)/C1=C\c1ccsc1	4107	3.4	1	-10	5	15	.
O=C(C1=CC(C2CC2)CC(OCCCCO)O1)N1CCN(Cc2ccccc2)CC1 (configuration not stated)	.	5.8&2.6	1&0	.	5&10	1&6	.
C#CCNC(=O)C1=C[C@@H](C)C[C@@H](OCc2ccc(CO)cc2)O1	4041	.	.	1	.	.	-5
CC(=NNC(=O)c1ccn(C)n1)c1ccco1	.	-0.5	0	.	6	0	.
Cc1ccccc1Nc1nc(-c2cccnc2)cs1	3682	5.5	-10	-13	-1	2	-49
C#CCn1cccc(C(=O)Nc2ccc(OC)cc2)c1=O	3722	0.0	3	3	8	1	-48
COc1ccc(C(=O)NCC(C)(C)SCc2c(C)cc(C)cc2C)cc1	7141	2.2	-14	12	7	4	-22

Compound profiles, from the list above. Order of screens: Bead autofluor, Sa RN4220 lethal, Sa ugtP lethal, BJeLR lethal, Mtb hypoxia rep, Mtb hypoxia rep growth, PrP UTR inh
Record of `S=C(NCc1ccco1)N1CCOCC1` : 4857, 5.5, -8, 7, -9, -5, 0
Record of `COc1cc(S(=O)(=O)N2CCN(C)CC2)ccc1Cl` : 9985, 2.1, 10, -1, 1, 4, -18
Record of `O=C(NCc1ccccc1)c1cccc(S(=O)(=O)NCc2ccccc2)c1` : 1986, 0.7, -2, -7, 6, -2, -17
Record of `CC(=NNC(=O)c1ccn(C)n1)c1ccco1` : ., -0.5, 0, ., 6, 0, .
Record of `O=C(Nc1cc(C(F)(F)F)ccc1Cl)C(Sc1cccc[n+]1[O-])c1ccccc1` (configuration not stated) : 2160, 3.2, 7, -5, 9, 5, -14

Following part:
SMILES	Bead autofluor	Sa RN4220 lethal	Sa ugtP lethal	BJeLR lethal	Mtb hypoxia rep	Mtb hypoxia rep growth	PrP UTR inh
CN(C)c1cccc(C(=O)N2CCCC(CCC(=O)N3CCN(c4ccccn4)CC3)C2)c1 (configuration not stated)	?	1.2	-1	12	7	16	3
COc1ccc(N2CC(C(=O)NCc3n[nH]c(=O)c4ccccc34)CC2=O)cc1 (configuration not stated)	3890	-0.5	3	-2	-7	3	-18
COC(=O)c1cc(OC)c(OC)cc1NC(=O)c1ccoc1C	.	-0.1	0	-6	1	0	.
CC1CCN(CCc2nc3cc(NS(=O)(=O)c4ccc(F)cc4)ccc3n2C)CC1	4514	2.0	0	-4	11	7	-10
Nc1ccc(-n2cnc3cc([N+](=O)[O-])ccc32)cc1	3970	2.3	4	-10	.	.	-7
O=C(CCC(=O)Nc1ccccc1Cl)NN=Cc1c[nH]c2ccccc12	.	7.2	1	.	14	12	.
CCOc1ccccc1-n1c(SCC(=O)N2CCCC2)nnc1-c1ccoc1C	3625	4.4	2	-2	.	.	-14
COc1ccc(/C=N/NC(=O)c2cc(C34CC5CC(CC(C5)C3)C4)[nH]n2)cc1O	2682	.	.	1	.	.	-10
CCN(CC)C(=O)c1cn(-c2ccccc2)nc1-c1ccc2c(c1)OCCO2	2717	2.4	1	6	2	0	-29
C=CC(=O)NN(C)c1ncc(C(F)(F)F)cc1Cl	4598	1.9	7	3	-5	-3	-22
C=CCn1c(O)c(/C=N/NC(=O)CCCC)c(=O)[nH]c1=S	4484	.	.	-9	.	.	-20
COC(=O)c1[nH]c2ccc(C)cc2c1NC(=O)NC1CCCCC1	2591	1.5	-1	5	.	.	-5
CCc1ccccc1NC(=O)CC(C)=NNC(=O)COc1ccccc1C	.	2.4	4	.	-2	5	.
Cc1cccc(NC(=O)CSc2nc(N)c(NC(=O)c3cccs3)c(=O)[nH]2)c1C	4349	-5.4	4	-17	3	-1	-17
CCOC(=O)c1c(C)[nH]c(C(=O)Cn2nnc(-c3ccccc3Cl)n2)c1C	5027	-1.2	11	-9	.	.	-27
CCC1(c2ccc(F)cc2)NC(=O)N(CC(=O)N2CCN(C(=O)c3cccs3)CC2)C1=O (configuration not stated)	4031	2.8	3	.	2	-3	0
CCn1ncc(CN2CCCC(CNC(=O)c3ccc(F)cc3)C2)c1C (configuration not stated)	4860	-2.0	-5	1	-6	8	-9
COc1ccc(C=NNC(=O)Nc2cccc3nsnc23)cc1OC	.	12	-3	.	18	8	.
COc1cc(C=NNC(=O)Cc2ccccc2)cc(OC)c1OC	.	1.8	2	.	5	2	.
O=C(CSc1nncs1)NCCCc1ccccc1	2600	4.9	10	-20	10	0	-14
O=C(CSc1nc2c([nH]c3ccccc32)c(=O)n1-c1ccccc1F)NCC1CCCO1 (configuration not stated)	5952	7.4	-6	0	0	-5	-10
CCCCCCCc1c(O)nc(SCCN2CCOCC2)[nH]c1=O	3257	5.2	7	-3	9	-1	-26
CCc1ccc(NC(=O)Cn2c(SC)nc3ccccc32)cc1	3410	-25	5	-1	17	23	-14
COc1ccc(N2CCN(C(=O)c3cn(C4CCCC4)c(=O)c4c3c3ccccc3n4C)CC2)cc1	3017	2.1	10	5	0	14	-9
CCN1CCc2c(sc(NC(=O)c3ccc(S(=O)(=O)N(C)CC4CCCO4)cc3)c2C(N)=O)C1 (configuration not stated)	5061	-2.3	3	-1	-4	-1	9
O=c1cc(O)c2sc3nc(-c4cccnc4)cc(C(F)(F)F)c3c2[nH]1	2130	8.3	-3	-6	7	7	-16
Cn1c2ccc(F)cc2c2nnc(SCCN3CCOCC3)nc21	3665	1.7	9	14	1	5	-24
COc1cccc(NC(=O)CN(C)C(=O)Cc2cccc3ccccc23)c1	?	3.0	2	.	1	6	-14
CC(=O)N1c2ccc(S(=O)(=O)N3CCCC3C(=O)NCc3ccc(Cl)cc3)cc2CC1C (configuration not stated)	6365	-0.4	9	-10	.	.	-31
COc1ccc(C)cc1NC(=O)c1ccc2c(c1)OCO2	21822*	7.3	0	6	10	16	-24
Cc1noc(C)c1S(=O)(=O)N1CCCC1C(=O)O (configuration not stated)	3132	5.4	7	1	7	-1	-10
COc1ccc(C2(C(N)=O)CCCCC2)cc1OC	2915	6.2	9	-2	4	8	0
CC(OC(=O)CN1C(=O)c2ccccc2C1=O)C(=O)c1ccccc1 (configuration not stated)	8634	3.9	4	.	1	4	-5
COc1ccc(C(=O)NC2(C(F)(F)F)NC(=O)N(CCCc3ccccc3)C2=O)c(OC)c1OC (configuration not stated)	8268	4.8	-16	1	11	8	-13
O=C(c1ccc(COc2ccccc2Br)cc1)N1CCCCC1	2302	0.3	-8	9	.	.	-18
COc1cc(/C=C/C(=O)OCC(=O)NC(=O)NC(C)C)cc(S(=O)(=O)N2CCc3ccccc32)c1OC	3254	3.5	2	5	8	4	-4
O=S(=O)(NN=C1CCCc2ccccc21)c1ccccc1	.	3.6	-1	.	8	3	.

Laid out differently: 3 of the compounds above.
Order of results: Bead autofluor, Sa RN4220 lethal, Sa ugtP lethal, BJeLR lethal, Mtb hypoxia rep, Mtb hypoxia rep growth, PrP UTR inh
O=C(c1ccc(COc2ccccc2Br)cc1)N1CCCCC1
→ 2302, 0.3, -8, 9, ., ., -18
COc1cc(/C=C/C(=O)OCC(=O)NC(=O)NC(C)C)cc(S(=O)(=O)N2CCc3ccccc32)c1OC
→ 3254, 3.5, 2, 5, 8, 4, -4
O=S(=O)(NN=C1CCCc2ccccc21)c1ccccc1
→ ., 3.6, -1, ., 8, 3, .
